# Bioassay records: PubChem, several laboratories
# UUG fidelity: modulators of yeast start codon fidelity, primary screen, whole organism, S. cerevisiae, single point, plate reader | 0.13% of 350,000 active | AID 602363, 2012 | activity score, % at 18.7 µM | S. cerevisiae UUG-firefly luciferase reporter, luminescence/redox ratio;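 active = replicate mean at a twofold rise or more, about +100% in these data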;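 also: firefly luciferase made from a UUG start codon reports start codon fidelity; reporter light over untreated wells divided by growth signal over untreated wells; some hits fall short of that in this replicate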
# MT1-MMP act inh: blockers of MT1-MMP proenzyme processing, primary screen, HT1080 RFP-PRO-GFP cells, GFP/RFP fluorescence; 0.061% of 360,000 active; GFP/RFP ratio change, % at 20 µM; GFP/RFP ratio fluorescence, overnight; percent of plate control window, DMSO zero;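 active = GFP/RFP ratio change of at least 30% with cell ATP level not reduced by more than half and red fluorescence within 50% of control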; also: strong numbers were not always called active
#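 Compound: 20 µM single dose, 1% DMSO / System: HT1080 RFP-PRO-GFP cells / Controls: DMSO and RFP-L50D-GFP cell wells / Read-out basis: GFP/RFP fluorescence ratio / Schedule: overnight compound exposure at 37 °C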
# PABP polyA inh: PABP poly(A) RNA binding inhibitors, primary screen, biochemical, fluorescence polarization, uHTS; Polyadenylate-binding protein 1 (Homo sapiens), P11940; inhibition, % at 35 µM; 1% of 290,000 active; AID 2014, 2009;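 active = 50% or more with normal probe brightness, or confirmed in later tests; inconclusive = above 50% with abnormal brightness, or retests that disagree; inactive = below 50% or failed in later tests; about a fifth of its hits are not listed in these tables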;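 also: calls also rest on retests at 20 µM and on dose response follow-up; controls were probe without protein and protein plus probe with vehicle; some compounds called inactive have numbers as strong as hits; many hits fall short of the cut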
# Target sequence (P11940 whole entry, looked up): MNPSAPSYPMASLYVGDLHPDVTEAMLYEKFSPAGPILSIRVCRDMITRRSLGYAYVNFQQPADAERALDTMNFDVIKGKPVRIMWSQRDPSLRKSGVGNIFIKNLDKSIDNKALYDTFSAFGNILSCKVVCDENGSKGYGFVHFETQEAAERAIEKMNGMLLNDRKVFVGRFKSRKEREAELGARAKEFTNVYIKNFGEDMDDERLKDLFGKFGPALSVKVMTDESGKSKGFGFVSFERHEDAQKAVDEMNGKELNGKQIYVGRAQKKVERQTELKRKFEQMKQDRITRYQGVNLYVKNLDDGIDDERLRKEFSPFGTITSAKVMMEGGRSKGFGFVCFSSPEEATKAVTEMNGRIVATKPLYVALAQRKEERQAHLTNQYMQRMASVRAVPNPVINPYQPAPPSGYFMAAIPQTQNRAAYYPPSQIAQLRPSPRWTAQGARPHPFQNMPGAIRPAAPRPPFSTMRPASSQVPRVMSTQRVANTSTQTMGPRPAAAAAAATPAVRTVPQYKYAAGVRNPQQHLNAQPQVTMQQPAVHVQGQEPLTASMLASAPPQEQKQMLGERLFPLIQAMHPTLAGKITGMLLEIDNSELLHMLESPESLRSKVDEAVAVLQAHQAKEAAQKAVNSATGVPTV
# HIV Env fusion: inhibitors of HIV-1 Env-driven cell-cell fusion, primary screen, HeLa-JRFL effector, CEM21 target cells, luciferase; AID 651610, 2012; inhibition, % at 12.3 µM; 1.1% of 360,000 active;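 active = mean replicate inhibition score of at least 50 and every replicate individually at or above 50; inconclusive = only one of the two criteria met; inactive = mean below 50 and not all replicates reaching 50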;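 also: 0% = plate neutral controls and 100% = maraviroc near 300 nM; one replicate is shown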
# eIF4H inh: human eIF4H binding inhibitors, primary screen, translation initiation inhibitor project, biochemical, uHTS, fluorescence polarization; 0.94% of 290,000 active; AID 2012, 2009; inhibition, % at 35 µM; Eukaryotic translation initiation factor 4H (Homo sapiens), Q15056; eIF4H fluorescence polarization binding assay;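 active = 50% or more with normal probe brightness, or confirmed in later tests; inconclusive = above 50% with abnormal brightness, or retests that disagree; inactive = below 50% or failed in later tests; about a fifth of its hits are not listed in these tables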;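 also: calls also rest on retests at 20 µM and on dose response follow-up; 0% = protein and probe with vehicle and 100% = probe without protein; strong numbers were not always called active; many hits fall short of the cut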
# CSC inhib: cancer stem cell viability inhibitors, primary screen, luminescence; cancer stem cell-like cells viability; inhibition, % at 7.5 µM; 1.1% of 300,000 active;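 active = mean at 75% or more and at least half the replicates too; inconclusive = mean and replicates disagree; tested in HMLE shEcad cells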;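 also: 0% = median of negative and 100% = median of positive control wells; the first replicate is given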
# Rce1 inhib: yeast Rce1p protease inhibitors, primary screen, biochemical, fluorescence, cell-free homogeneous; CAAX prenyl protease 2 (Saccharomyces cerevisiae (strain ATCC 204508 / S288c)), Q03530; yeast membranes, quenched prenylated peptide cleavage fluorescence; calls only; 0.27% of 290,000 active; AID 2563, 2010;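 active = fall in fluorescence gain of 50% or more versus controls, with final raw signal at or below 3038400; inconclusive = same 50% fall but final raw signal above 3038400; inactive = fall in fluorescence gain under 50%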;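 also: plate controls were neutral control wells for no effect and wells lacking membranes for full effect; tested at 10 µM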
# PABP polyA inh retest: recorded beside PABP polyA inh, whose call it bears; inhibition, %; compound at 20 µM; confirmation repeats;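 mean of two retest wells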
# MT1-MMP act inh RFP: second read-out of MT1-MMP act inh, no call of its own (marks repeat the call); RFP signal change, %; measured here: RFP expression control read;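 0 = vehicle wells; hits needed this value within 50% of zero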
# Starred values were filed as active, the others as inactive; i = inactive; ? = inconclusive; nt = no result given.
SMILES,UUG fidelity,MT1-MMP act inh,MT1-MMP act inh RFP,PABP polyA inh,HIV Env fusion,eIF4H inh,CSC inhib,Rce1 inhib,others
COc1ccc(C(=O)NC2CCN(C(=S)Nc3ccccc3)CC2)cc1,nt,8,3,-9,-14,-8,-17,i,
O=c1[nH]c(/C=C\c2cccs2)nc(O)c1[N+](=O)[O-],-23,2,3,-5,-1,5,-1,i,
CCCCn1c(/N=C/c2cc(OC)ccc2O)nc2ccccc21,-12,1,0,2,nt,2,-12,i,
Cc1cccc2cc(C#N)c(SCC(=O)NCC3CCCO3)nc12 (stereo not given),-13,2,3,-4,nt,-2,7,i,
COc1ccc(CC(=O)Nc2ccc3nc(C)sc3c2)cc1OC,nt,2,1,119,11,?,nt,i,PABP polyA inh retest=8
c1ccc(Oc2ccc(-c3ccnc4ncnn34)cc2)cc1,nt,4,6,0,-18,0,-13,i,
CC(C)C[C@H](NC(=O)c1[nH]cnc1C(=O)N[C@@H](C)C(=O)OCc1ccccc1)C(=O)OCc1ccccc1,9,-5,-4,nt,-8,nt,nt,nt,
N#C/C(=C\C1=C(N2CCOCC2)C(=C\c2ccc(Cl)cc2)/CC1)C(=O)Nc1ccccc1F,nt,4,65,18,-13,1,6,i,
CCCC(=O)Nc1c(-c2ccc(OC)cc2)c(=O)c2ccccc2n1C,-7,4,3,18,-6,2,-7,i,
COc1ccc(-c2cc(C)no2)cc1S(=O)(=O)NCC1CCN(Cc2cc(C)ccc2C)CC1,1,3,2,2,-1,-2,14,i,
CCOC(=O)c1c(CN2CCCCC2)oc2ccc(O)cc12,-3,-4,3,2,nt,3,-4,i,
Clc1ccc2nc(C3CCCCC3)c(CC3CCCCC3)n2c1,-14,-4,-4,nt,-63,nt,nt,nt,
O=C(CSc1nnc(-c2ccccc2O)n1-c1ccccc1)Nc1cccc(C(=O)O)c1,nt,0,4,5,-3,-4,2,i,
CCCC(C(=O)Nc1ccc(S(=O)(=O)N2CCCC2)cc1)c1ccccc1 (stereo not given),-3,-11,-2,nt,8,nt,0,i,
COc1ccc(C(=O)CSc2nnc(-c3cc(C)cc(C)c3)o2)cc1,-9,-5,-1,-8,nt,6,5,i,
CC(=O)Nc1ccc2c(c1)nc(CCNC(=O)c1ccccc1)n2C,-31,1,4,-16,-43,-4,nt,i,
Cc1noc(C)c1COC(=O)CNC(=O)c1ccc(Cl)cc1,-20,-3,0,-5,-20,0,-14,i,
CCn1nc(C)c(NC(=O)CCSc2nc(-c3ccco3)cc(C(F)(F)F)n2)c1C,-1,9,7,-7,-20,-1,nt,i,
O=C(c1cn2ccccc2n1)N1CCc2c([nH]c3ccccc23)C1c1ccccn1 (stereo not given),nt,-1,4,1,9,8,-2,i,
COc1ccccc1OCCNC(=O)c1cccc(S(=O)(=O)N2CCN(C)CC2)c1,-6,-1,3,16,nt,-11,-7,i,
Cc1nc(-c2nc(-c3c(C(=O)NNC(=O)c4ccc(Cl)cc4)noc3C)cs2)cs1,nt,4,3,-4,13,-9,2,i,
O=C(NCC(c1ccco1)N1CCCC1)c1cccc(NS(=O)(=O)c2ccccc2)c1 (stereo not given),nt,-2,1,nt,nt,nt,-14,i,
COc1ccc(OC)c(NC(=O)N2CCc3ccccc3C2)c1,-6,0,1,-2,5,-5,-3,i,
CCCCN(C(=O)c1cc2ccccc2o1)c1c(N)n(CCCC)c(=O)[nH]c1=O,-3,-7,3,nt,0,nt,nt,nt,
NC(=O)NC(Cc1ccccc1)c1ccccc1 (stereo not given),-6,2,-2,10,nt,-4,nt,i,
COc1ccc(OC)c(NC(=O)c2nnn(Cc3ccccc3C)c2N)c1,6,1,-5,-7,-193,-14,106*,i,
CC(=O)N(C)c1ccc(OCC(O)Cn2c3ccc(Cl)cc3c3cc(Cl)ccc32)cc1 (stereo not given),-11,-34,-31,1,130*,0,105*,i,
CCCc1c(C)c2ccc(OCC(C)=O)cc2oc1=O,35,3,-1,0,nt,-10,2,i,
Cc1cc(C)cc(N(CC(=O)NC2CCCCC2)C(=O)c2ccc(C)s2)c1,-1,-1,-8,-8,-4,0,-36,i,
Cc1cc(NC(=O)C(C)SCC(=O)Nc2ccccc2N2CCCC2)no1 (stereo not given),-16,-1,0,nt,6,nt,nt,i,
Cc1[nH]n(-c2ccccc2)c(=O)c1N=Nc1cccc(Cl)c1,-18,7,5,-10,-9,1,14,i,
COC(=O)CCc1cccc(CCC(=O)OC)c1,-8,-2,5,8,-4,-6,-4,i,
Cc1nc(NC(=O)c2cc3ccccc3o2)ccc1Br,-2,-1,1,4,-30,8,4,i,
Cc1ccccc1NS(=O)(=O)c1ccc(NS(=O)(=O)c2cccs2)cc1,-9,2,5,2,-7,-3,6,i,
CCCCN(C(=O)CSCC(=O)Nc1ccc(OC)cc1)c1c(N)n(Cc2ccccc2)c(=O)[nH]c1=O,-14,0,1,nt,-9,nt,-12,i,
COc1cccc(/C=N/n2c(C)nc3ccccc32)c1OC,-26,6,-3,-1,-151,-7,8,i,
CC(C)COC(=O)N1CC(O)CC1C(=O)Nc1ccc2c(c1)OCO2 (stereo not given),-5,-4,0,nt,nt,nt,-18,nt,
CCN1C(=O)N(C(C)=O)C2C1N(C(C)=O)C(=O)N2C(C)=O (stereo not given),nt,0,1,2,-8,-5,-4,i,
COc1ccccc1C(=O)Nc1onc(C)c1C#N,nt,-5,3,4,-20,-1,-13,i,
CSc1nnc(-c2cccc(NC(=S)NN)c2)o1,nt,4,4,28,-37,6,-13,nt,
CN1CC(c2ccccc2)C(c2ccc(Cl)cc2)=N1 (stereo not given),9,-3,-2,-1,-24,-12,-17,i,
CCOC(=O)NCc1ccc(CNC(=O)OCC)cc1,-17,0,-1,-1,nt,-5,nt,nt,
COc1cc(C(=S)N2CCOCC2)ccc1OC(=O)Cc1ccc(F)cc1,-24,2,2,-9,nt,4,-4,i,
Cc1ccc(CC(=O)NCC(O)c2ccccc2)cc1 (stereo not given),-16,1,2,1,4,-7,-7,i,
Cc1ccc(-c2cccc(NC(=O)C3C(C(=O)O)[C@@H]4C=C[C@H]3C4)c2)o1 (stereo not given in full),nt,-4,0,0,nt,5,-13,i,
CCCCCNC(=O)C(C)Sc1ccc(Cl)cc1 (stereo not given),nt,2,3,-4,18,-7,-1,i,
CCN(CC)C(=O)/C(NC(=O)c1ccccc1)=C(/Sc1ncccn1)c1ccccc1,-17,-1,1,8,14,5,-7,i,
CCCCN(C(=O)c1cc(=O)[nH]c2ccccc12)c1c(N)n(CCC)c(=O)[nH]c1=O,nt,nt,nt,-1,nt,-2,25,i,
Cc1ccc(-c2oc3ccccc3c(=O)c2OCC(=O)O)cc1,-18,-3,3,-6,4,3,-1,i,
Cc1ccc(CNC(=O)CCCCCNC(=O)N2CCn3c2nc2ccccc23)cc1,-15,2,4,-2,0,-11,-1,i,
Nc1nc2ccccc2n1CCOc1ccccc1Cl,-10,7,-3,-14,nt,-6,-6,i,
O=C(CCN1C(=O)C2CCCCC2C1=O)Nc1nc(-c2ccc(F)c(F)c2)cs1 (stereo not given),-21,1,0,-8,4,-4,-9,i,
CC(NC(N)=O)C12CC3CC(CC(C3)C1)C2 (stereo not given),-15,2,-1,-5,-34,-2,-6,i,
Cc1cc(NC(=O)CCC(=O)N(c2ccc(C)c(F)c2)C(C(=O)NC2CCCC2)c2ccco2)no1 (stereo not given),-7,-5,-2,-5,4,-3,-10,i,
Cn1cnnc1SCC(=O)Nc1ccc(N2CCCCC2)cc1,-18,2,1,nt,-3,nt,-19,nt,
CCCCCCNC(=O)CCCCCNS(=O)(=O)c1ccc(OC)cc1,nt,1,-3,11,-4,-1,nt,i,
CCSc1nnc(NC(=O)c2csc3c2CCCC3)s1,-11,0,0,-5,nt,7,-12,i,
CC(=O)c1c(C)[nH]c(C(=O)Nc2ccc3c(c2)OCCO3)c1C,-36,1,1,-3,nt,-4,-8,i,
COc1ccc(C(=O)Nc2nnc(SCC(=O)NCc3ccco3)s2)c(OC)c1,-32,-5,-3,-2,13,12,-2,i,
Cc1cc(C)n(C(=O)c2ccc(Cl)c(F)c2F)n1,nt,0,2,10,5,5,-3,i,

# Among those listed so far, three contain a COOH group:
SMILES,UUG fidelity,MT1-MMP act inh,MT1-MMP act inh RFP,PABP polyA inh,HIV Env fusion,eIF4H inh,CSC inhib,Rce1 inhib,others
O=C(CSc1nnc(-c2ccccc2O)n1-c1ccccc1)Nc1cccc(C(=O)O)c1,nt,0,4,5,-3,-4,2,i,
Cc1ccc(-c2cccc(NC(=O)C3C(C(=O)O)[C@@H]4C=C[C@H]3C4)c2)o1 (stereo not given in full),nt,-4,0,0,nt,5,-13,i,
Cc1ccc(-c2oc3ccccc3c(=O)c2OCC(=O)O)cc1,-18,-3,3,-6,4,3,-1,i,

# Further entries:
SMILES,UUG fidelity,MT1-MMP act inh,MT1-MMP act inh RFP,PABP polyA inh,HIV Env fusion,eIF4H inh,CSC inhib,Rce1 inhib,others
CC(C)C(c1nnnn1Cc1ccc2c(c1)OCO2)N1CCN(c2ccccc2)CC1 (stereo not given),-11,-8,-4,13,nt,-7,21,i,
Cc1nnc(-c2cccc(C(F)(F)F)c2)nc1N1CCOCC1,nt,-4,0,1,-5,-2,-11,i,
Cc1cccc(NC(=O)C2C(c3ccccc3)C2(Cl)Cl)c1 (stereo not given),nt,-3,-8,-5,11,-3,5,i,
CNC(=O)C1CC(=O)N(Cc2ccc(OC)c(OC)c2)C(=Nc2ccc(OC)cc2)S1 (stereo not given),9,5,4,-4,nt,-5,3,i,
CCN(C(=S)Nc1cc(S(=O)(=O)N2CCOCC2)ccc1Cl)c1cccc2ccccc12,nt,6,9,-5,16,2,-17,i,
N#C/C(=C/c1ccc(N2CCCCCC2)o1)c1ccc(Cl)cc1,-21,-69,9,29,nt,12,66,i,
O=[N+]([O-])c1cccc(Cn2cnc3c(=S)nc[nH]c32)c1,-20,4,4,nt,0,nt,nt,nt,
COCCn1c(SC2CCCCC2=O)nnc1-c1ccncc1 (stereo not given),nt,0,3,-8,-11,0,-22,i,
Cc1cccnc1NC(=S)Nc1ccc(Cl)c(Cl)c1,nt,-2,3,-5,-19,5,29,i,
O=C(NNC(=O)c1ccc(Br)o1)c1ccc(NC(=O)c2ccccc2)cc1,nt,5,3,7,-6,-12,5,i,
Cc1cc(NC(=O)CSc2nnc(CNC(=O)c3ccccc3)o2)no1,-19,-3,4,-5,1,2,3,i,
O=C(CNC(=O)c1ccccc1F)OCn1nnc2ccccc2c1=O,-19,1,4,nt,nt,nt,-6,nt,
NS(=O)(=O)c1ccc(CCNc2ccnc3cc(Cl)ccc23)cc1,-5,3,-1,-1,0,-3,0,i,
CC1=CCn2c(=O)c3ccccc3c(=O)n2C1,26,0,2,-2,-13,5,nt,i,
CCN(CC)CCNC(=O)C1c2cc(OC)c(OC)cc2C(=O)N(C)C1c1cccs1 (stereo not given),0,0,-1,8,-8,-2,nt,i,
Cc1noc(C(=O)Nc2ccc(C#N)cc2)c1Cl,-9,-2,-3,10,-11,8,3,i,
CS(=O)(=O)N(Cc1ccc(F)cc1)Cc1nc2ccccc2c(=O)[nH]1,-11,-7,-2,4,nt,1,nt,i,

# A portion of the library. The share of hits here may be higher or lower than overall.
